hNpr1 antagonist = human Npr1 receptor antagonism. 76,000 compounds, 1.6% hits. HEK293 hNpr1 GloSensor cGMP, ANP-stimulated luminescence. P16066. Potency, µM (highest dose often 46.3 µM), without a hit: at the top dose activity change, negative = inhibition, usual class: inhibitors; active = well fitted inhibition curve with a large enough effect; inconclusive = small, poorly fitted or top-dose-only effect; inactive = no such curve, though single readings can be large or run the other way;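 also: nearly all actives have a fitted effect of over 60% in size; nearly all hits also lower the signal before the agonist is added; a reference antagonist and vehicle were the controls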
Target sequence (P16066 whole entry, looked up): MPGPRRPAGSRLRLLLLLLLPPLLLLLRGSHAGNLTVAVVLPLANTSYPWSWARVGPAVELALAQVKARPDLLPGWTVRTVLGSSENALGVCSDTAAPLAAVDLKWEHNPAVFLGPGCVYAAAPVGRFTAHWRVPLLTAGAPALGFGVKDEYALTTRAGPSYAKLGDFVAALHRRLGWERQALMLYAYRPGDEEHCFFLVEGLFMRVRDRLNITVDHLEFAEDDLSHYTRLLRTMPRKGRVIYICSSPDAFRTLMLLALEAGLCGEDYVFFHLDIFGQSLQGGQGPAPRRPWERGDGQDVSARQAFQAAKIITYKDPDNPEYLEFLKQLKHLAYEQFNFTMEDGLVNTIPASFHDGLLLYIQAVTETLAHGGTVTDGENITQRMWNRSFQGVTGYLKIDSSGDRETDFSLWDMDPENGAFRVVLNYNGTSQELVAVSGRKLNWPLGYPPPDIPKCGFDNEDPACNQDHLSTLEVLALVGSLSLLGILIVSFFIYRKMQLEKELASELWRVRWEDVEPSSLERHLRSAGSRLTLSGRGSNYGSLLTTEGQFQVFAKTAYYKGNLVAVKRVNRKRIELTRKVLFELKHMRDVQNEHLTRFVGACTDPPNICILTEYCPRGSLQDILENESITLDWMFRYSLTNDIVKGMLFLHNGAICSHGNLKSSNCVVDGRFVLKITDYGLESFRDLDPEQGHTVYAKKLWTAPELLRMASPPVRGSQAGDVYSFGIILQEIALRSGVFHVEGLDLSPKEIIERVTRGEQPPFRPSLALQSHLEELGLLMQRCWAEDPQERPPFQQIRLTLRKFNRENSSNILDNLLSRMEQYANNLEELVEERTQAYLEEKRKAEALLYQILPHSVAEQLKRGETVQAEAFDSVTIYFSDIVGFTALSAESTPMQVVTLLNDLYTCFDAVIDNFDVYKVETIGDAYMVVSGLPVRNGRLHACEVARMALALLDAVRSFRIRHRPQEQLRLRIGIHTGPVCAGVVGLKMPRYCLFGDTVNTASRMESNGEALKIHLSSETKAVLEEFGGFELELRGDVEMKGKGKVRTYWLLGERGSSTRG
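Compound pre-incubated 30 min at room temperature on GloSensor-loaded HEK293 cells stably carrying hNpr1 and the pGS-40F cGMP biosensor. Stimulation uses hNppA at 0.1 nM final; luminescence is taken at baseline and 20 min post-agonist.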
Starred values were filed as active, the others as inactive; ? = inconclusive; [ ] = another dose, or the depositor's remark. % is scaled to controls: 0 for no effect and ±100 for the full control effect; potency is read from the fitted curve at half-maximal effect. The list is partial; rates above refer to the full screens.

Structure | hNpr1 antagonist
COC(=O)C1=CN(CC(=O)NCc2ccc(OC)cc2)S(=O)(=O)N=C1C | 3%
CC(C)NC(=O)N1CCC(c2noc(-c3ccccc3)n2)C1 (centres undefined) | 5%
Cc1cc2cc(-c3c(C)noc3C)nc(-c3ccc([S+](C)(=O)[O-])cc3)c2o1 | 1%[70.6 µM]
CN(C)C[C@@H]1CN(Cc2ccccc2)C[C@H]1NC(=O)C1CC=CC1 | 2%
CN1CCCC1c1nc(C2CN(C(=O)c3ccn[nH]3)C2)no1 (centres undefined) | 6%
CC(C)N1C(=O)CO[C@H]2CCN(CCCc3ccccc3)CC[C@@H]21 | ?
O=C(NC1CC(=O)N(Cc2ccccc2C(F)(F)F)C1)c1cscn1 (centres undefined) | -2%
CCOc1ccc(C(=O)N2CCC[C@H]2c2nc(-c3ccc(OC)c(OC)c3)no2)cc1OCC | 0%
Cc1ccc(C(=O)N2CCC([C@@H]3CNC[C@H]3CO)CC2)cc1C | 4%
COCc1cn(C[C@H]2C[C@@H](NC(=O)c3cnccn3)[C@H](O)[C@@H]2O)nn1 | -3%[70.6 µM]
Cc1cc(C(=O)N2CC[C@H](NS(=O)(=O)c3cn(C)cn3)C[C@H]2C(=O)N[C@@H](Cc2cccs2)C(N)=O)n(C)n1 | 4%
Cc1nc(C)c(C(=O)N2CCCC(Cc3noc(-c4cnccn4)n3)C2)s1 (centres undefined) | 6%
O=C1CCN(C(=O)C2CCN(C(=O)CC3CCCC3)CC2)CCCCCCN1 | -2%
CN1CCc2[nH]cnc2C12CCN(C(=O)CC1NC(=O)c3ccccc31)CC2 (centres undefined) | 4%
CCOc1nccnc1NC1CCN(C(=O)NC)CC1 | 0%
O=C(NC1CCCCC1)C1CN(C(=O)c2ccccc2)CC12CCOCC2 (centres undefined) | 0%
COc1ccc(OC)c(CN2CCCn3nc(C)c(-c4ccccc4OCc4ccccc4)c32)c1 | 7.1µM*
Cc1cccc2cc(C(=O)N3CCCC(Nc4ccc(F)cc4)C3)oc12 (centres undefined) | 5%
COc1ccccc1Oc1ncccc1CNC(=O)[C@@H]1CCCN1C(C)=O | 8%
COc1ccc(C(=O)N2CCC[C@H]2c2nc(-c3ccccc3)no2)cc1F | 4%
CC(=O)N1CCCc2nc(C)nc(-c3ccc(O)cc3)c2C1 | 1%[70.6 µM]
CC1=C[C@@H](CN(C)CCO)[C@H](C(C)C)C[C@H]1Cc1nnc(-c2ccc(N(C)C)cc2)o1 | -1%[70.6 µM]
O=C(Cc1ccc(F)cc1)N1CCC(N2CC3CC(C2)[C@H]2CCCC(=O)N2C3)CC1 (some centres undefined) | 0%
O=C1Nc2ccc(Br)cc2C(=O)N2CCN(C(=O)c3cccc(F)c3)C[C@H]12 | -8%[70.6 µM]
Cc1ccsc1CN(C)C1CCc2nn(CC3CC3)c(=O)n2CC1 (centres undefined) | 6%
O=C(NC1C[C@H]2CC[C@@H](C1)N2C(=O)COc1ccc(Cl)cc1)c1ccncc1 (some centres undefined) | 2%
CCOCC(=O)Nc1nn(-c2cccc(F)c2)c2cccc(N3CCOC3=O)c12 | 1%
COc1cccc(CN2CCC3(C2)NC(=O)c2ccccc2CO3)c1 (centres undefined) | 8%[70.6 µM]
COc1ccc(CN2C[C@H]3CN(Cc4cc(OC)c(OC)c(OC)c4)CCN3C2=O)cc1 | -6%
COc1ccc(-c2cc(N3CCC(NC(=O)c4ccc(Cl)cc4)C3)n[nH]2)cc1 (centres undefined) | -13%
Cc1ccc(C(=O)N2CCC23Cc2ccccc2NC3=O)cc1 (centres undefined) | 0%[70.6 µM]
O=C(C1CN(c2ccc(F)cc2)C(=O)N1)N1CCOCC1 (centres undefined) | 0%[70.6 µM]
CNC(=O)[C@@H]1CNC[C@H]1c1n[nH]c(C)n1 | -2%
O=C(N[C@@H]1CN(Cc2cc(F)c(F)c(F)c2)C[C@H]1CO)C1CC1 | -10%
O=C(N[C@@H]1CN(C(=O)NCc2ccccc2)CCC[C@H]1O)c1ccc(OCc2ccccc2)cc1 | 0%
COc1ccc(CN2CC3(CCN(C(=O)CCCc4ccccc4)CC3)C2=O)cc1 | -25%
CN(Cc1cccs1)c1cc(C2CC(O)C2)ncn1 (centres undefined) | -20%
Cc1ccc(-n2c(C3CCN(C(=O)COc4ccc(F)cc4)CC3)n[nH]c2=O)cc1 | 0%
Cc1ncsc1CN1CCCC(n2c(C)cnc2-c2cccnc2)C1 (centres undefined) | 3%
O=C(CCc1ccccc1)NC1CCN(c2nnc3ccccn23)CC1 | 4%
CCCCCC(=O)N1CCC(O)(c2csc(CN3CCOCC3)n2)CC1 | -1%[70.6 µM]
O=C(NCCOc1ccccc1)c1nc2c(o1)CCN(Cc1ccsc1)CC2 | -11%[70.6 µM]
CCc1noc(-c2cn(C3CCN(C(=O)c4ccc(OC)cc4C)C3)nn2)n1 (centres undefined) | -13%
O=C(O)c1ccc(-c2ncc3cnc(-c4ccccc4)cn23)cc1 | 5%[70.6 µM]
CNC(=O)[C@@H](C1CC1)N1CCC[C@H]1C(=O)NCc1cccnc1 | 1%[70.6 µM]
CN(C)C(=O)N1CCC(c2nc(C3CCOC3)no2)CC1 (centres undefined) | 1%
Cc1noc([C@@H]2CN(C(=O)c3cscn3)C[C@H]2C(N)=O)n1 | -3%
CN(Cc1cc(-c2ccccc2)n[nH]1)c1cc(C2CC(N)C2)ncn1 (centres undefined) | 1%
CC1=C[C@@H](CN(C)CCO)[C@H](C(C)C)C[C@H]1Cc1nnc(-c2ccccc2F)o1 | -2%[70.6 µM]
Cc1ccc(CN2C(=O)[C@@H]3C[C@@H](O)CN3C3(CN(Cc4ccc(C(F)(F)F)cc4)C3)C2=O)o1 | -18%
CCCc1noc(-c2cccn3c(CNC(=O)c4ccc(Cl)cc4)nnc23)n1 | -16%
CSc1ccc(CNC(=O)c2ccc3c(c2)N(C)C2CCCCCN2C3=O)cc1 (centres undefined) | -1%
CN(C)C(=O)c1cccnc1OC1CCN(C(=O)NCCc2ccccc2)C1 (centres undefined) | 0%
CCN(Cc1ccncc1)C(=O)c1ccc(C2CCNC2)cc1 (centres undefined) | -1%
O=C(CCC1CCN(C(=O)C2CC(=O)N(C3CC3)C2)CC1)Nc1ccc2c(c1)OCCO2 (centres undefined) | 5%
COC(=O)CNC(=O)N1CCCCC1c1nc(CCOCC2CC2)no1 (centres undefined) | 1%
Cc1n[nH]c(C)c1CN1CCC2(CC1)CCN(C1CCOCC1)CC2CO (centres undefined) | 1%
Cc1c(F)cccc1NC(=O)N1CCCC1c1nncn1-c1ccccc1 (centres undefined) | -14%
COc1ccc(-c2nn(-c3ccccc3)cc2CN2CCC(F)CC2)c(F)c1 | -1%
O=C(O)c1ccc(CN2C[C@@H](F)[C@@H](OCc3nc4ncccc4[nH]3)C2)cc1 | 0%[70.6 µM]

Remaining list, next part.
Structure | hNpr1 antagonist
COc1ccccc1CC(=O)N1CCC(c2n[nH]c(=O)n2Cc2ccc(F)cc2)CC1 | -3%
Cc1noc(C)c1CCC(=O)N1CCc2nn(CC#N)c(=O)n2CC1 | 7%
c1cc2c(cc1CN1CCOCC1)CNCCO2 | 10%
COc1ccc2cc1Nc1ccc(cc1)C[C@H](NCc1ccc3c(c1)CCO3)C(=O)N(C)[C@H](C(=O)NCCC(C)C)C2 | -2%
CC(=O)N1CC[C@H](c2nc3ccc(C(F)(F)F)cc3[nH]2)C1 | 3%[70.6 µM]
CN(C)S(=O)(=O)N1CCN(C(=O)C2CC(=O)N(c3n[nH]c4ccccc34)C2)CC1 (centres undefined) | 1%
Cc1ccc2c(C(=O)N(C)C)cnn2c1 | 6%[70.6 µM]
N#Cc1cccc(OCc2nc3c(n2Cc2ccccc2)C(=O)N(Cc2ccccc2F)CCN3)c1 | -21%
CCN(CCO)C(=O)[C@H]1C[C@@](CC)(C(=O)O)N(C)[C@H]1c1ccc(OC)cc1 | 4%
CCc1ocnc1C(=O)N1CCC2(CCC(=O)N(CCc3cnc[nH]3)C2)CC1 | -2%
Cc1noc(C)c1-c1ccc2c(n1)CN(Cc1ccc(F)cc1)C(=O)CO2 | -16%[70.6 µM]
O=C(NC1CCN(Cc2ccccc2)CC1)c1cc2n(n1)CC(c1ccc(Cl)cc1)OC2 (centres undefined) | 10µM*
CCCCN1C(=O)c2ccccc2C(C(=O)Nc2nc(C)cs2)C12CCCC2 (centres undefined) | -2%
COc1cc(OC)cc(C(=O)NCC2CCCN(C/C=C/c3ccccc3OC)C2)c1 (centres undefined) | -6%
C=CCNC(=O)N[C@H]1CCN(C(=O)C=C(C)C)[C@@H]1C(=O)N[C@H](Cc1ccccc1)C(N)=O | 8%
CCNC(=O)C1C(c2cccc(NC(=O)c3ccc(C)cc3)c2)OC(=O)N1Cc1ccc(F)cc1 (centres undefined) | 11µM*
COc1ccc(-c2nc3c(c(=O)[nH]2)CCN(C(=O)NCC2CCCO2)C3)cc1 (centres undefined) | -3%
FC(F)Oc1ccccc1CN1CCCC12CCN(c1ncccn1)CC2 | 9%
Cn1ccnc1CN[C@@H]1CO[C@H](CNC(=O)CC(C)(C)C)[C@H]1O | 1%[70.6 µM]
O=C(c1ccc(=O)[nH]c1)N1C[C@@H](CO)[C@H](c2ccccn2)C1 | 1%

Molecules from the list above that have sulfur:
Structure | hNpr1 antagonist
COC(=O)C1=CN(CC(=O)NCc2ccc(OC)cc2)S(=O)(=O)N=C1C | 3%
Cc1cc2cc(-c3c(C)noc3C)nc(-c3ccc([S+](C)(=O)[O-])cc3)c2o1 | 1%[70.6 µM]
O=C(NC1CC(=O)N(Cc2ccccc2C(F)(F)F)C1)c1cscn1 (centres undefined) | -2%
Cc1cc(C(=O)N2CC[C@H](NS(=O)(=O)c3cn(C)cn3)C[C@H]2C(=O)N[C@@H](Cc2cccs2)C(N)=O)n(C)n1 | 4%
Cc1nc(C)c(C(=O)N2CCCC(Cc3noc(-c4cnccn4)n3)C2)s1 (centres undefined) | 6%
Cc1ccsc1CN(C)C1CCc2nn(CC3CC3)c(=O)n2CC1 (centres undefined) | 6%
CN(Cc1cccs1)c1cc(C2CC(O)C2)ncn1 (centres undefined) | -20%
Cc1ncsc1CN1CCCC(n2c(C)cnc2-c2cccnc2)C1 (centres undefined) | 3%
CCCCCC(=O)N1CCC(O)(c2csc(CN3CCOCC3)n2)CC1 | -1%[70.6 µM]
O=C(NCCOc1ccccc1)c1nc2c(o1)CCN(Cc1ccsc1)CC2 | -11%[70.6 µM]
Cc1noc([C@@H]2CN(C(=O)c3cscn3)C[C@H]2C(N)=O)n1 | -3%
CSc1ccc(CNC(=O)c2ccc3c(c2)N(C)C2CCCCCN2C3=O)cc1 (centres undefined) | -1%
CN(C)S(=O)(=O)N1CCN(C(=O)C2CC(=O)N(c3n[nH]c4ccccc34)C2)CC1 (centres undefined) | 1%
CCCCN1C(=O)c2ccccc2C(C(=O)Nc2nc(C)cs2)C12CCCC2 (centres undefined) | -2%

Remaining list, next part:
Structure | hNpr1 antagonist
COCCn1ncc(N2CCCC(CC(=O)NCc3cccc(F)c3)C2)cc1=O (centres undefined) | 1%
CCCOc1cc(C)c2c(c1C)C[C@H](C(C)C(=O)N1CCN(CC(=O)O)CC1)CC2 (some centres undefined) | 3%[70.6 µM]
CCOCCN1C(=O)COC[C@@H]1[C@H](O)c1ccc(NC(=O)c2cnccn2)cc1 | 1%[70.6 µM]
COc1ccc(C2=NOC3(CCN(C(=O)c4ccc5c(c4)OCO5)C3)C2)cc1 (centres undefined) | -10%
O=C(NCC1CN(C(=O)Cc2ccc(C(F)(F)F)cc2)CC12CN(c1ccccc1)C2)c1ccccc1 (centres undefined) | -3%
O=C(c1cccc(Br)c1)N1CCC([C@@H]2CNC[C@H]2CO)CC1 | 10%
CC(C)CC(=O)N1CCOCC12CCN(Cc1ccc(C(C)C)cc1)CC2 | 2%[70.6 µM]
COc1cccc(C(=O)N2CCC(N3CC4CCCN4C3=O)CC2)c1 (centres undefined) | -4%[70.6 µM]
CCCCC1CN(c2cccc(-c3ccccc3)c2)C(=O)CN1C(C)=O (centres undefined) | 7%
Cc1cc(C(=O)N2C[C@@H](CO)[C@H](c3nc(C4CC4)no3)C2)c(C)o1 | 9%
CC(=O)Nc1ccc(CN2CCC3(CC(C)=NO3)C2)cc1 (centres undefined) | 16%[70.6 µM]
Cc1cnc(C(=O)N[C@@H]2CCC[C@@H]2C(=O)NCCc2ccccc2)cn1 | 1%
COc1ccc2c(c1)C=C(CN1CCCn3nc(C(C)O)cc3C1)CO2 (centres undefined) | 4%
COCCNC(=O)N1CCCC(c2noc(COc3ccccc3F)n2)C1 (centres undefined) | 0%
CC(C)Cc1cc(C(=O)N2CCCC(C)(c3ccccc3)C2)no1 (centres undefined) | -2%
COc1ccc(NC(=O)c2ccc3c(c2)N(C)C2CCCCCN2C3=O)cc1Cl (centres undefined) | -7%
CN(C)C[C@@H]1CN(C)C[C@H]1NS(=O)(=O)c1ccccc1C(F)(F)F | -1%
O=C(c1ccc(C(F)(F)F)cc1)N1CCc2nc(C3CC3)nc(-c3ccc(Cl)cc3)c2CC1 | 2%
CCc1cc(=O)n(CC(=O)Nc2cc(OC)cc(OC)c2)c(N2CCOCC2)n1 | -27%
Cc1nc(N2CCC(NC(=O)CC3CCCCC3)CC2)cc(C(F)(F)F)n1 | 0%
O=C(C1CC1)N1C[C@@H]2OCC(=O)N(Cc3ccc(F)cc3)[C@@H]2C1 | 0%[70.6 µM]
